Bioassay records as filed in PubChem.
N370S GC mod: qHTS Assay for Inhibitors and Activators of N370S glucocerebrosidase as a Potential Chaperone Treatment of Gaucher Disease | Potency, µM (doses to about 59.4 µM), inactives show top-dose activity change, negative = inhibition, most hits filed as inhibitors | N370S GC spleen homogenate, 4MU-glucoside fluorescence | actives 0.092% (n = 330,000) | Lysosomal acid glucosylceramidase (Homo sapiens), P04062;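 also: 0% = full enzyme activity and -100% = no enzyme basal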
KAT2A inh: qHTS Assay for Inhibitors of GCN5L2; Histone acetyltransferase KAT2A (Homo sapiens), Q92830; GCN5L2 HAT assay, ThioGlo1 CoA-SH fluorescence; Potency, µM (doses to about 58.9 µM), inactives show at the highest dose activity change, negative = inhibition, usual class: inhibitors; actives 0.21% (n = 390,000); AID 504327, 2011
Target sequence (Q92830 whole entry, looked up): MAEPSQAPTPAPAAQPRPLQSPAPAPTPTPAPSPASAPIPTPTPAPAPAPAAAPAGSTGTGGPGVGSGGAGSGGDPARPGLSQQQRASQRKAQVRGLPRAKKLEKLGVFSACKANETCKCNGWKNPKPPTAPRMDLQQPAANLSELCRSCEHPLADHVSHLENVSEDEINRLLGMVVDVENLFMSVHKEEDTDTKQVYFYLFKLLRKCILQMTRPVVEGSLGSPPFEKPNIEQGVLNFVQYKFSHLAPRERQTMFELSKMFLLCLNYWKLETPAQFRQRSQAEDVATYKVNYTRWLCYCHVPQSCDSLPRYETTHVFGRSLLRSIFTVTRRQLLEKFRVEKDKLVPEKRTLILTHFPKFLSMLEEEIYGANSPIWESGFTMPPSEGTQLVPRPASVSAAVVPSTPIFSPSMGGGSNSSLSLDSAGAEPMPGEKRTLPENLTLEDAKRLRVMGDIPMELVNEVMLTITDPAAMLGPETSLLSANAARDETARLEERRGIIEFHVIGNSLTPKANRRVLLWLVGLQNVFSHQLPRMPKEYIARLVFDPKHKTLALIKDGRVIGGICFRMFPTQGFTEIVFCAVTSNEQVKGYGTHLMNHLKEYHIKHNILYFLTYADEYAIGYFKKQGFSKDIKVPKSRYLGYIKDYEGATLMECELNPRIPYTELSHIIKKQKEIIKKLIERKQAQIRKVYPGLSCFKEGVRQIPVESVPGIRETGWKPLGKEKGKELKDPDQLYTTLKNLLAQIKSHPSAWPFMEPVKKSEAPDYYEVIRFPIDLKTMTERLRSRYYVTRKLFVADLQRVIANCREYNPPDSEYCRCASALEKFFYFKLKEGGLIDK
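GCN5L2 (20 nM) in 50mM HEPES pH 7.5, 0.1mM EDTA, 0.01% Tween-20 preincubated 15 min with compounds at room temperature. Reaction started with H3(1-25) 75uM, acetyl-CoA 70uM, ThioGlo1 50uM; CoA-thiol fluorescence (Ex340/Em540) read at 0 and 20 min.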
The depositor's hits bear a star; ? = inconclusive; . = not tested or not shown; & = joins results of further samples; [ ] = dose if it differs, or a comment. Calls follow the shape of the dose curve; as a rule, active = well fitted curve in the direction sought with a large enough effect; inconclusive = small, poorly fitted or top-dose-only effect, or another doubt; inactive = no such curve, though single readings can be large; an effect the other way counts as inactive or inconclusive. Unless noted, % is scaled to controls: 0 for no effect and ±100 for the full control effect; potency is read from the fitted curve at half-maximal effect.

Sequence of screens: N370S GC mod, KAT2A inh
CCN(CC)CCNC(=O)CNC(=O)c1nn(-c2ccc(OC)c(OC)c2)c(=O)c2ccccc12
 : -9%, -1%
CCc1cc(C(=O)N2CCCC(C(=O)c3ccc(Oc4ccccc4)cc3)C2)n(C)n1 (stereo not given)
 : 1%, -3%
COc1ccc(CCNC(=O)COC(=O)c2ccc(C)s2)cc1OC
 : ., -1%
COc1cccc(C(c2nnnn2Cc2ccccc2)N2CCN(C(=O)c3ccco3)CC2)c1OC (stereo not given)
 : -3%, 2%
C/C(=N\NC(=O)CNc1cccc(Cl)c1C)c1cccs1
 : 4%, 2%
CC(=O)Nc1ccc(S(=O)(=O)NC2=NCN(C)CN2)cc1
 : -8%, -4%
COc1ccc(C(=O)CN2CC(C)SC2=Nc2ccc(Cl)cc2)cc1 (stereo not given)
 : -1%, -5%
Cc1ccc(C)c(S(=O)(=O)N2CCC3(CC2)OCCO3)c1
 : -2%, -3%
CCOC(=O)N1CCC(NC(=O)c2ccc(NC(=O)C3CCCO3)cc2)CC1 (stereo not given)
 : 4%, 3%
CN(C)S(=O)(=O)c1cccc(NC(=O)COC(=O)CCSc2ccc(Cl)cc2)c1
 : -4%, -2%
O=C(CN(C(=O)c1csnn1)c1ccc(F)cc1)NCc1ccc2c(c1)OCO2
 : 1%, 0%
COc1ccc(NC(=O)Nc2ccc(C(=O)N3CCOCC3)cc2)c(OC)c1
 : -1%, 1%
Nc1c(C(=O)Nc2ccc(Cl)c(C(=O)O)c2)sc2nc3c(cc12)CCCC3
 : 1%, -16%
CCCN1Cc2cccc(C(=O)Nc3ccc(C)cc3)c2C1=O
 : -9%, -4%
Cn1c(SCC(=O)N2CCCc3ccccc32)ncc(C(=O)Nc2ccc(F)cc2)c1=O
 : ., -3%
NNC(=O)c1ccc(CN2CCCCC2)o1
 : 4%, -3%
COc1ccc2c3n(nc2c1)CCN=C3c1cc(Cl)c(N)c(Cl)c1
 : ?, -11%
CC1CCN(S(=O)(=O)c2c[nH]c(=O)[nH]c2=O)CC1
 : -7%, -6%
Cc1c(N(C)C)c(=O)n(-c2ccccc2)n1C
 : 1%, 3%
COc1ccc(CCNC(=O)COC(=O)c2cnc(C)cn2)cc1
 : 5%, -7%

Brought forward from above: two compounds, then new ones.
Sequence of screens: N370S GC mod, KAT2A inh
Cc1c(N(C)C)c(=O)n(-c2ccccc2)n1C
 : 1%, 3%
COc1ccc(CCNC(=O)COC(=O)c2cnc(C)cn2)cc1
 : 5%, -7%
COc1ccc(CNC(=O)Nc2cccc(Cl)c2)cc1
 : -12%, 1%
O=C(CSc1nc(NS(=O)(=O)c2ccccc2)cc(=O)[nH]1)Nc1cccc(C(F)(F)F)c1
 : -5%, ?
Cc1cccc(C(=O)O/N=C(\N)c2ccc(Br)cc2)c1
 : 1%, -4%[0.501 µM]
O=S1(=O)N=C(N/N=C/C=C/c2ccccc2)c2ccccc21
 : -15%, -9%
Cc1ccc(C(=O)COC(=O)CNC(=O)COc2ccccc2C)cc1C
 : -1%, -3%
COC(=O)Cn1c2ccc(C)cc2c2nc(C)sc21
 : -1%, 19%
CCOC(=O)c1ccccc1NC(=O)CSc1nnc(CC)n2c1cc1occc12
 : ., -7%
O=C(NCc1ccccc1Br)c1ccc(-n2cnc3cccnc32)cc1
 : ., -5%
Cc1n[nH]c(C)c1S(=O)(=O)N1CCCC(C(=O)NCc2ccc(F)cc2)C1 (stereo not given)
 : -2%, -5%
CC(C)C(=O)Nc1cccc(NC(=S)NC(=O)c2ccc([N+](=O)[O-])cc2)c1
 : 1%, 4%
O=C(COc1ccc2c(c1)OCO2)Nc1nnc(Cc2ccccc2)s1
 : -1%, -5%
N#Cc1cc2c(cc1NC(=O)CCn1cnnn1)OCO2
 : -3%, 0%
COC(=O)CNC(=O)C1CCN(c2nc(C)cc(C)n2)CC1
 : 6%, -2%
CCn1c(Cn2nnc(-c3ccccc3)n2)nnc1SCC(=O)Nc1ccc(N(C)C)cc1
 : -1%, -4%
Cc1sc2ncnc(OCc3nnc(-c4cccs4)o3)c2c1C
 : 2%, -12%
O=C1CCCN1CCCNC(=S)Nc1ccc(F)cc1
 : 3%, -14%
CCCc1cc(C(=O)Nc2sc3c(c2C(=O)OCC)CCCC3)no1
 : -5%, 0%
COc1ccc(NC(=O)CN2C(=O)N(C)Cc3ccccc32)c(C)c1
 : 4%, -3%
CC(=O)c1ccc(N2CCN(C(=O)Nc3ccc(C(C)C)cc3)CC2)cc1
 : 5%, -8%&-6%
Cc1ccc(C(=O)NC(=S)Nc2ccc(N3CCOCC3)cc2)c(C)c1
 : 6%, -10%

A stretch taken from the entries so far, for reference:
Sequence of screens: N370S GC mod, KAT2A inh
Cc1sc2ncnc(OCc3nnc(-c4cccs4)o3)c2c1C
 : 2%, -12%
O=C1CCCN1CCCNC(=S)Nc1ccc(F)cc1
 : 3%, -14%
CCCc1cc(C(=O)Nc2sc3c(c2C(=O)OCC)CCCC3)no1
 : -5%, 0%
COc1ccc(NC(=O)CN2C(=O)N(C)Cc3ccccc32)c(C)c1
 : 4%, -3%
CC(=O)c1ccc(N2CCN(C(=O)Nc3ccc(C(C)C)cc3)CC2)cc1
 : 5%, -8%&-6%
Cc1ccc(C(=O)NC(=S)Nc2ccc(N3CCOCC3)cc2)c(C)c1
 : 6%, -10%

The list goes on:
Sequence of screens: N370S GC mod, KAT2A inh
O=C(O)/C=C\C(=O)Nc1ccc(OC(F)F)cc1
 : 3%, -1%
COC(=O)C1C(=O)C(C(=O)/C=C/c2ccccc2)C(=O)CC1(C)C (stereo not given)
 : 6%, 7%
CC(=O)c1cccc(NC(=O)c2nc3ccccc3nc2N2CCCCC2)c1
 : ., -12%
C=CCSc1nc(O)c(C2OC(=O)c3c2ccc(OC)c3OC)c(=O)n1-c1ccccc1 (stereo not given)
 : -3%, 0%
C=CCNC(=O)NC(=O)COC(=O)CC(NC(N)=O)c1ccc(Cl)cc1 (stereo not given)
 : 5%, 17%
Cc1cccc(C(=O)NCCCNC(=O)c2ccc(C)nc2)c1
 : -3%, 4%
Cn1c(=O)oc2cc(S(=O)(=O)N3CCC(C(=O)Nc4ccc(OC(F)(F)F)cc4)CC3)ccc21
 : 13%, 1%
O=c1[nH]cc(S(=O)(=O)N2CCCc3ccccc32)c(=O)[nH]1
 : -13%, -3%
O=C(CCC1CCCC1)Nc1ccc(C(=O)NCc2cccnc2)cc1
 : -11%, -13%
NC(=O)CSc1nnc(COc2cccc3ccccc23)o1
 : -4%, -6%
O=C1CCCN1CN(C(=O)c1ccccc1)c1ccccc1
 : 4%, -4%
CCOC(=O)c1noc2ncn(Cc3ccc([N+](=O)[O-])cc3)c(=O)c12
 : ., -24%
O=C(OCC(=O)N1CCN(c2ccccc2)CC1)C1CCCN1S(=O)(=O)c1ccc(Cl)cc1 (stereo not given)
 : -3%, -8%
O=C(C1CCCN(S(=O)(=O)Cc2ccccc2)C1)N1CCc2ccccc21 (stereo not given)
 : 7%, -6%
Cc1ccc2nc(N3CCC(C(=O)NCc4ccc(F)cc4)CC3)[nH]c2c1
 : ., -25%
O=c1[nH]c(=O)n([C@@H]2O[C@H](CO)[C@@H](O)[C@H]2O)cc1Br
 : 2%, -10%
Cc1ccc(S(=O)(=O)c2ccccc2)cc1S(=O)(=O)N1CCOCC1
 : -1%, -2%
O=C(NCCOc1ccccc1Cl)c1ccc2c(c1)S(=O)(=O)c1cc(Cl)ccc1C2=O
 : ., 0%
COc1ccc(NC(=O)Cn2cnc3sc(C)c(S(=O)(=O)N4CCN(C)CC4)c3c2=O)cc1Cl
 : ., -7%
CCOc1ccccc1C(=O)N(Cc1ccco1)C1CCS(=O)(=O)C1 (stereo not given)
 : -3%, -3%

Continuation:
Sequence of screens: N370S GC mod, KAT2A inh
CC/C(=N\NC(=O)c1nnn(-c2nonc2N)c1-c1cccc(OC)c1)c1ccc(C)cc1
 : 1%, -5%
CCN(CC)S(=O)(=O)c1ccc(N2CCN(c3cccc(OC)c3)CC2)c([N+](=O)[O-])c1
 : -1%, -7%
O=C(COc1ccc(Cl)cc1)NCCNC(=O)c1ccccn1
 : -8%, 3%
O=C(c1ccc(COc2ccccc2Cl)o1)N1CCN(c2ccccc2)CC1
 : 22%, -13%
Cc1cc(C)c2oc(C(=O)N(Cc3ccccc3)C3CCS(=O)(=O)C3)cc(=O)c2c1 (stereo not given)
 : 13%, ?
CCOC(=O)c1sc2cccc(F)c2c1N
 : 22%, -12%
COc1cc(-c2nnc(-c3ccc(N4CCOCC4)cc3)o2)cc(OC)c1OC
 : -10%, -22%
CC(NC(=O)CCl)c1ccccc1Br (stereo not given)
 : -1%, 5%
COCCNC(=O)NC(=O)CN1CCCc2ccccc21
 : -2%, -2%
CN(C)C(CNC(=O)c1cccc(S(=O)(=O)Nc2ccc(Br)cc2)c1)c1ccco1 (stereo not given)
 : -10%, 3%
Cc1nc(=S)c2ccccc2[nH]1
 : -4%, -16%
O=C(c1ccccc1F)N1CCN(c2ccc([N+](=O)[O-])c3cccnc23)CC1
 : -6%, -4%
COc1ccc(CNC(=O)C2CCN(C(=O)c3ccccc3)CC2)cc1
 : -28%, -6%
Cc1ccc2c(CN3CCN(C(=O)c4ccc(Br)cc4)CC3)cc(=O)oc2c1
 : ., -14%
CCN1CCCCC(=N/O)/C(=N/O)CCCC1
 : -5%, -8%
CCOC(=O)NC(=O)/C(C#N)=C\Nc1sccc1C(=O)OC
 : -2%, -8%
CCCC(=O)Nc1ccc2c(c1)nc1n2CCSC1
 : 5%, -2%
COc1cccc(C(=O)N2CCC(C(=O)NCc3ccc(C)cc3)CC2)c1
 : -2%, -6%
CCOC(=O)c1cc2cc(OC)ccc2[nH]1
 : -16%, ?
COc1cccc(Cn2nnc(C(=O)NCc3ccc(F)cc3)c2N)c1
 : 9%, -10%

6 entries already listed, arranged by count of non-hydrogen atoms, largest number first:
Sequence of screens: N370S GC mod, KAT2A inh
CC/C(=N\NC(=O)c1nnn(-c2nonc2N)c1-c1cccc(OC)c1)c1ccc(C)cc1
 : 1%, -5%
O=C(c1ccc(COc2ccccc2Cl)o1)N1CCN(c2ccccc2)CC1
 : 22%, -13%
COc1ccc(CNC(=O)C2CCN(C(=O)c3ccccc3)CC2)cc1
 : -28%, -6%
O=C(COc1ccc(Cl)cc1)NCCNC(=O)c1ccccn1
 : -8%, 3%
CCOC(=O)NC(=O)/C(C#N)=C\Nc1sccc1C(=O)OC
 : -2%, -8%
COCCNC(=O)NC(=O)CN1CCCc2ccccc21
 : -2%, -2%

The listing continues.
Sequence of screens: N370S GC mod, KAT2A inh
CCOc1ccc(N2C(=O)CC(NCC3CCCO3)C2=O)cc1 (stereo not given)
 : 2%, -5%
CNC(=O)N(O)C1N(/N=C/c2cc(Br)ccc2O)C(=S)SC1(C)C (stereo not given)
 : 2%, -22%
COCc1nc2ccccc2n1Cc1ccccc1
 : 8%, 0%
Cc1cc(C)cc(NC(=O)Nc2ccc(NC(=O)c3ccccc3O)cc2)c1
 : -22%, -8%
O=C(C1COc2cc(S(=O)(=O)Nc3ccc(Cl)cc3)ccc2O1)N1CCCC1 (stereo not given)
 : ., 6%
CC(C)Cn1c(CN2CCN(C(=O)c3ccco3)CC2)nc2c1c(=O)n(C)c(=O)n2C
 : -3%, -1%
N#C/C(=C\c1cccc([N+](=O)[O-])c1)C(=O)NCc1cccnc1
 : 6%, -6%
NC(=O)CC(NC(=O)c1ccccc1)c1ccc(NCCc2cccc(F)c2)c([N+](=O)[O-])c1 (stereo not given)
 : -5%, 0%
CS(=O)(=O)N1CCC(Oc2ccccc2C(=O)N2CCNC(=O)C2)CC1
 : 12%, -5%
CNC(=O)C1CCN(S(=O)(=O)c2c(C)noc2/C=C/c2cccc(C)c2)CC1
 : -10%, 0%
CCCC(C)NC(=O)COC(=O)c1ccc(Cl)c(S(N)(=O)=O)c1 (stereo not given)
 : 2%, 1%
C/C(Cc1ccccc1)=N\NC(=O)CNC(=O)Cc1ccc(Cl)cc1
 : -4%, 1%

Not all compounds are listed, and most or all hits are left out here.
